# D2 potentiator: human D2 receptor positive allosteric modulation; P14416; DiscoveRx D2 beta-arrestin cells, luminescence, 90 min; 100% = 57 uM dopamine signal; potentiation, % (no concentration beside the values); 360,000 compounds, 0.23% hits; AID 624464; active = potentiation of 50% or more; inconclusive = 30% to 50%; inactive = 30% or less;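 further: compound concentration not given in the record; tested on top of an EC20 dose of dopamine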
# Target sequence (P14416 whole entry, looked up): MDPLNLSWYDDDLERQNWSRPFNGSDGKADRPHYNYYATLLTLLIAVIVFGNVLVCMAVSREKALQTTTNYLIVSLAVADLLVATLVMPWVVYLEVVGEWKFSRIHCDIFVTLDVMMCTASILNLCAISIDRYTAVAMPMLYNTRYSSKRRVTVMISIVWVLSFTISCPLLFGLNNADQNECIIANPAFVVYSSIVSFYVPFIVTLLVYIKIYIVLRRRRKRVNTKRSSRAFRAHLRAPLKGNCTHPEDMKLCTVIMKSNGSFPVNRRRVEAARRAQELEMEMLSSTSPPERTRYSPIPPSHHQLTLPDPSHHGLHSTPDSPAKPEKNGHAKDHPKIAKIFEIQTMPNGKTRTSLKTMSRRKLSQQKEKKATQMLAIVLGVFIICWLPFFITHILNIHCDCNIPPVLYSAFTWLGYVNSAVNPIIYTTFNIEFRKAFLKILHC
#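 D2 cells co-treated with compound plus 50 nM dopamine (EC20) for 90 min at 37 deg C to detect potentiation. Beta-arrestin recruitment was read as enzyme-fragment luminescence after 1 h at ambient temperature. Full response was set by 57 uM dopamine.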
# Menin MLL FP FL: inhibitors of human menin-MLL interaction, wild-type MLL peptide | FP activity change, % at 61.4 µM | 290,000 tested, under 10 active | Fluorescence polarization, fluorescein-MLL peptide displacement from menin; inconclusive = falling polarisation curve, or a change in total fluorescence; inactive = total fluorescence flat and polarisation flat or rising; no compound was filed as active; the % refers to the polarisation; negative = inhibition;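 further: % of control where 0% means no effect; inhibitors lower the polarisation; unlabelled MLL peptide was the positive control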
# Sfp PPTase inh: blocks B. subtilis Sfp PPTase activity | AID 1490 | Biochemical Sfp PPTase activity, qHTS | Potency, µM, for inactives: max response, negative = inhibition, most hits filed as inhibitors | 310,000 compounds, 3.5% hits; active means well fitted inhibition curve with a large enough effect; inconclusive means small, poorly fitted or top-dose-only effect, or another doubt; inactive means no such curve, though single readings can be large or run the other way;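 further: the enzyme is Sfp with the accession as filed and its product quenches rhodamine fluorescence; potency means the concentration at half of the fitted maximal effect; 0% = enzyme reaction without inhibitor and -100% = no enzyme wells; top concentration of the series not given in the record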
#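 After 15 min at room temperature with compound, 15 nM Sfp received 5 uM rhodamine-CoA plus 12.5 uM BHQ-2-ybbR (50 mM Hepes pH 7.6, 10 mM MgCl2). Rate came from the fluorescence difference over 30 min, ex 525/em 598 nm.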
# ClpP mod: qHTS Assay for Activators of ClpP. ATP-dependent Clp protease proteolytic subunit (Bacillus subtilis (strain 168)), P80244. purified B. subtilis ClpP, FRET peptide cleavage, 20 min. Potency, µM (doses to about 57.5 µM), for the others: top-dose activity change, negative = active. 340,000 compounds, 1.9% hits; active = well fitted falling curve with a large enough effect; inconclusive = small, poorly fitted or top-dose-only effect; inactive = no such curve, though single readings can be large or run the other way; further: potency means the concentration at half of the fitted maximal effect; the source files actives as falling curves though it sought activators and does not explain the sign; nearly all actives have a fitted effect of over 65% in size; many hits overshoot -100%
# Target sequence (P80244 whole entry, looked up): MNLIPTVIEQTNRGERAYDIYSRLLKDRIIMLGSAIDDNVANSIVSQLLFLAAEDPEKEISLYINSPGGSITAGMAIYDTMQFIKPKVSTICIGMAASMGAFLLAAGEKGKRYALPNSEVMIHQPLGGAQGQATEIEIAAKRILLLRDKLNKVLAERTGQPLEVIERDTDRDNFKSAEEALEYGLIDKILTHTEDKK
#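 Buffer: 100 mM Tris/HCl pH8, 100 mM KCl, 0.05% low protease BSA, 2.5% glycerol, 0.01% Tween-20. ClpP 10 microg/mL final; 20 min RT; delta FRET normalized to ADEP and DMSO controls.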
# gsp antag: antagonizes gsp, the McCune-Albright syndrome mutation | gsp-mutant cells, cAMP HTRF, 30 min; control for the full effect not named in the record | Potency, µM (top dose mostly 76.9 µM), inactives show at the highest dose activity change, negative = inhibition, most hits filed as inhibitors | 340,000 compounds, 0.4% hits; active = falling curve of any shape with a large fitted effect; inconclusive = falling curve, mostly with a smaller effect; inactive = flat or rising curve; cell line not stated here;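 further: intracellular cAMP measured with PDE inhibitor Ro 20-1724 present during compound exposure; potency means the concentration at half of the fitted maximal effect; on the % scale 0 is the no-effect control and ±100 the full control effect; nearly all actives have a fitted effect of over 65% in size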
#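 G418-selected cells were plated in DMEM/10% FBS for 16-24 h at 37C, then treated with compounds plus the PDE inhibitor […] (300 uM solution added) for 30 min at 37C. Intracellular cAMP was measured by HTRF after 30 min lysis at room temperature.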
# TRPV1 PAM: enhances activation of the human vanilloid receptor TRPV1 | Q8NER1 | TRPV1-expressing cells, Fluo-8 calcium influx, capsaicin EC20 potentiation; host cell line not named in the record; control for the full effect not named in the record | potentiation, % at 8.33 µM | 320,000 compounds, 0.02% hits; active means potentiation above 80%; inconclusive means 30% to 80%; inactive means below 30%; further: 0% is about no effect
#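 Cells expressing TRPV1 were dye-loaded with Fluo-8 and read kinetically: 10 s baseline, 3 min after compound (agonist portion), then 2 min after EC20 capsaicin (allosteric enhancer portion). Calcium-bound dye fluorescence at 480/520 nm.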
# gsp ag: agonists of gsp mutant (McCune-Albright syndrome); 340,000 compounds, 0.13% hits; gsp mutant cells, cAMP HTRF, 30 min; control for the full effect not named in the record; Potency, µM (highest dose often 76.9 µM), inactives show at the top dose activation (cAMP increase), most hits filed as activators; active = well fitted activation curve with a large enough effect; inconclusive = small, poorly fitted or top-dose-only effect, or another doubt; inactive = no such curve, though single readings can be large or run the other way; cell line not stated here;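 further: phosphodiesterase inhibitor Ro 20-1724 added with compounds to block cAMP breakdown; potency means the concentration at half of the fitted maximal effect; nearly all actives have a fitted effect of over 60% in size; about a fifth of the inactives were tested at one dose only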
#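 Cells stably selected in G418 were plated at 2000/well, grown 16-24 hr, then given compounds in DMSO with the PDE inhibitor […] (300 uM solution added) for 30 min at 37C; cAMP was read by HTRF.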
# An asterisk follows results filed as active; ? = inconclusive; nt = not tested or not shown; & = joins results of further samples; [ ] = remark or other dose.
SMILES,D2 potentiator,Menin MLL FP FL,Sfp PPTase inh,ClpP mod,gsp antag,TRPV1 PAM,gsp ag
COc1ccc(-c2csc(NC(=O)CCN3C(=O)C4CC=CCC4C3=O)n2)cc1OC (stereo unspecified),0,nt,nt,-1.8%,0%,12,-57%[inhibitor]
CCc1ccc(C(O)(CNCc2ccccc2)c2ccccc2)cc1 (stereo unspecified),-24,6.6,2%,-1.7%,-8%,0,10%
CCCCC(=O)Nc1ccc(NC(=S)NC(=O)c2cccs2)cc1OC,-16,6.5,-25%,1.2%,-11%,-1,-3%
CCOC(=O)c1c(NC(=O)c2ccc(-n3cnnn3)cc2)sc2c1CCCC2,-10,6.3,-2%,-6.6%,-14%,2,25%
OC(CCN1CCCCC1)(c1ccccc1)C1C[C@@H]2C=C[C@H]1C2 (stereo partly specified),-23,nt,nt,1.2%,5%,9,nt
CC(C)(C)S(=O)(=O)c1cnc(N2CCCCC2)nc1N,-3,-3.3,-10%,-4.3%,14%,-22,0%[15.4 µM]
O=C(N/N=C/c1ccc(O)cc1)c1cncc(Br)c1,-3,-0.4,7%,-0.5%,-1%,5,14%[15.4 µM]
O=C(NCc1ccccc1)NC(=O)c1ccncc1,-1,4.1,7%,0.5%,1%,10,41%
COc1ccc(CNC(=O)CSc2nn3c(=O)c(C(C)(C)C)nnc3s2)cc1OC,0,1.2,14%,nt,?,-2,24%
O=C(COC(=O)c1ccc(Cl)c(S(=O)(=O)N2CCOCC2)c1)Nc1ccc2[nH]c(=O)[nH]c2c1,-3,nt,nt,-1.9%,-2%,22,-13%
CCN(CC(=O)Nc1c(F)cccc1F)C(=O)CSCC(=O)Nc1ccc(OC)cc1,-4,nt,nt,-2.1%,7%,16,-9%
O=C(Cc1ccc(Cl)cc1)OCc1nnc(-c2ccccc2)o1,-7,-4.1,8%,-1.4%,7%,6,-73%[inhibitor]
Cc1cccn2c(=O)c3cc(S(=O)(=O)c4ccc(Br)cc4)c(=N)n(C4CCCCC4)c3nc12,-9,-1.6,5%,-1.5%,12%,5,?
O=C(NCc1ccco1)c1cc(-c2ccc(Cl)cc2)on1,4,11,4%,1.1%,13%,11,-2%
COc1ccc(-n2cnnc2SCC(=O)c2cc(C)n(Cc3cccs3)c2C)cc1,-33,1.1,-15%,-0.3%,6%,11,-2%
Cc1ccc(CS(=O)Cc2ccc(C(=O)NC3CCCCC3)o2)cc1 (stereo unspecified),-11,-1.3,4%,-4.2%,8%,18,-59%[inhibitor]
COC(=O)[C@]1(C)N[C@H](CN(C)S(=O)(=O)c2ccc(C(C)(C)C)cc2)[C@@H]2C(=O)N(C)C(=O)[C@@H]21,-7,nt,nt,0.9%,1%,nt,nt
CCCCn1c(N)c(N(C(=O)CSc2nnc(C)n2-c2ccccc2)C2CCCC2)c(=O)[nH]c1=O,0,nt,nt,1.0%,4%,2,?
CCCCN(CC)S(=O)(=O)N1CCC(C(=O)NCc2ccc(F)cc2)CC1,11,1.1,10%,-0.8%,-15%,-16,-4%
CCN(CC)C(=O)[C@H]1C[C@H](CC(=O)NCCCN(C)C)C(=O)N2CCc3c([nH]c4cc(-c5ccco5)ccc34)[C@]12C,-3,nt,nt,4.0%,4%,nt,nt
CCNC(=O)Nn1c(-c2ccccc2)nc2ccccc2c1=O,-20,-2.8,-7%,-0.7%,-5%[15.4 µM],5,21%
COc1ccc(C)cc1C(=O)CCC(=O)N1CCN(c2ccccc2F)CC1,-12,nt,nt,-8.8%,-3%,6,-13%
CCCn1c(SCC(=O)NCc2ccc(F)cc2)n[nH]c1=O,-9,-8.1,20%,nt,-3%,-2,12%[15.4 µM]
O=C(COc1coc(CN2CCc3ccccc3C2)cc1=O)Nc1ccccc1F,-8,nt,nt,-2.6%,4%,7,-2%
COc1ccc(CCC(=O)OCC(=O)NC2CCCC2)cc1OC,-4,nt,nt,1.2%,nt,nt,-10%
CCOC(=O)CSc1nc2c(cnn2-c2ccc(F)cc2)c(=O)[nH]1,-2,-1.2,7%,nt,5%,12,-11%[15.4 µM]
Cc1ccc(-c2csc(NC(=O)c3cccc(S(=O)(=O)N4CCN(C)CC4)c3)n2)cc1,12,-0.8,-6%,-5.0%,-2%,0,12%
O=C(CSc1nc2c(c(=O)n1-c1ccc(F)cc1)SCC2)Nc1ccc2c(c1)OCO2,-22,nt,nt,0.7%,1%,nt,-3%
CCCS(=O)(=O)N1CCC(C(=O)c2cccc(C(F)(F)F)c2)CC1,-6,2.8,-8%,-0.3%,-10%,-11,-11%
COc1ccc(C(=O)CC2SC(N)=NC2=O)cc1 (stereo unspecified),-2,2.5,-12%,nt,3%,-7,7%[15.4 µM]
COC(=O)Cc1ccc(Oc2ncc(C(F)(F)F)cc2Cl)cc1,-6,2.3,4%,nt,-3%,-26,11%
CC/C(=N\NC(=O)c1c(C)nc2ccccn12)c1ccccc1,-3,-2.6,0%,nt,-5%,-5,-1%[15.4 µM]
COC(=O)c1cc(NC(=O)c2cc(-c3ccc(C(F)(F)F)cc3)oc2C(F)(F)F)ccc1N1CCOCC1,-3,8.5,29%,nt,-11%,-14,32%
CCOC(=O)c1ccc(-c2ccc(/C=C(\C#N)C(=O)NCC3CCCO3)o2)cc1 (stereo unspecified),19,3.6,-10%,91%,-3%,-4,43%
CCc1cc2c(cc3c(=O)n(CC(=O)NCCCN4CCCCCC4)nc(CC)n32)s1,-1,nt,0%,0.0%,-2%,-10,0%
Cc1ccc(S(=O)(=O)N(C)CC(=O)OCC(=O)NCCN2C(=O)CSC2=O)cc1,-8,nt,nt,-0.7%,-34%,-6,-16%
O=c1c2cccnc2[nH]c(=S)n1Cc1ccccc1,-8,0.3,-9%,0.2%,6%,13,7%[15.4 µM]
COc1ccc(N2CCN(C(=O)CCc3nc(-c4ccc(C)cc4)no3)CC2)cc1,12,1.4,-3%,0.9%,?,7,-55%[inhibitor]
C=CCOC(=O)c1ccc(N2CCN(c3ccccc3)CC2)nc1,2,-3.0,?,nt,2%,7,2%
Cc1ccc(CN2C(=O)CCC2C(=O)NCc2ccc(F)cc2)cc1 (stereo unspecified),-4,0.0,?,-0.8%,5%,2,3%
c1ccc(NCc2nc3ccccc3n2CCOc2ccccc2)cc1,-8,0.7,2%,-1.3%,16%,1,?
Cc1ccc(CNC(=O)[C@H]2C[C@@H]2[C@H](NP(=O)(c2ccccc2)c2ccccc2)c2ccccc2)o1,-9,4.1&3.6,35µM*,1.0%,-9%,13,-7%
CCOC(=O)c1nc(NNC(=O)c2ccc([N+](=O)[O-])cc2)sc1C,-8,-5.9,8%,nt,?,0,-32%[inhibitor]
Cc1cccc(-n2ncc3c(=O)[nH]c(SCC(=O)NCCC4=CCCCC4)nc32)c1,-4,nt,nt,1.0%,-2%,-2,-26%
COc1ccc(OCCN(C)C(=O)c2cccc(S(=O)(=O)N(C)c3ccccc3)c2)cc1,-22,nt,nt,1.0%,?,-9,7%
COc1cccc(N(C(=O)CNC(=O)c2ccco2)C(C(=O)NC2CCCC2)c2ccco2)c1 (stereo unspecified),12,nt,8%,nt,0%,17,-2%[15.4 µM]
CCSc1nc2ccccc2n1S(=O)(=O)c1ccccc1,-4,3.6,-11%,0.8%,1%,nt,-26%
COc1ccc(CCN2CCCC(CN(C)C(=O)c3ccoc3)C2)cc1 (stereo unspecified),-13,nt,8%,0.7%,14%,9,0%
O=C(O)Cc1ccc(OCc2ccc(Cl)nc2)cc1,2,7.5,12%,nt,-6%,-9,10%[15.4 µM]
O=C1Nc2ccccc2C12NCCc1c2[nH]c2ccccc12 (stereo unspecified),-5,2.6,12%,-1.5%,-2%,14,-17%
COCCN(C(=O)COC(=O)c1ccc(Cl)nc1)c1c(N)n(Cc2ccccc2)c(=O)[nH]c1=O,-2,nt,nt,nt,11%,19,3%[15.4 µM]
CSc1nc2nc(-c3ccc(F)cc3)c(CCN3CCN(C)CC3)cn2n1,-6,5.6,1%,-16%,3%,5,-22%
Cc1cccnc1NC(=O)CSc1nnc(CNC(=O)c2cccc([N+](=O)[O-])c2)n1C,-2,nt,5%,-2.3%,-11%,0,?
CCOC(=O)CCC(=O)N1CCOCCOCCN(C(=O)CCC(=O)OCC)CCOCC1,-7,2.7,9%,-0.5%,2%,5,?
Cc1c(C(=O)OC(C)C)sc(N)c1C(=O)OC(C)C,8,4.9,5%,-3.5%,-5%,2,-4%
CC1=CC=CC2=NC(=O)CC(C)(C(=O)N(CC(=O)NC3CCCC3)c3ccccc3C)N12 (stereo unspecified),-14,23,8%,?,-9%,2,9%
COc1ccc(CN2CCn3nc(C(=O)NC4CC4)cc3C2=O)cc1,-4,-1.9,-6%,1.4%,8%,-10,27%
O=S1(=O)NC2c3ccccc3CC2O1 (stereo unspecified),-14,3.1,-2%,-1.2%,12%,7,-2%
O=C(CC12CC3CC(CC(C3)C1)C2)Nc1ccc2c(c1)COC2=O,1,1.7,4%,-1.5%,-36%,-8,?
COc1ccc([N+](=O)[O-])cc1NS(=O)(=O)Cc1ccccc1,-2,0.3,13%,0.0%,7%,7,-2%
# Continuation:
SMILES,D2 potentiator,Menin MLL FP FL,Sfp PPTase inh,ClpP mod,gsp antag,TRPV1 PAM,gsp ag
COCCNC(=O)c1ccccc1N(Cc1ccccc1)S(=O)(=O)c1ccccc1,-9,nt,nt,-15%,8%,nt,17%
CNC(=O)NC1CCCCc2sccc21 (stereo unspecified),3,3.1,15%,-1.5%,9%,30,-41%[inhibitor]
CC1C/C(=N\NC(N)=S)c2cc(Cl)ccc2S1 (stereo unspecified),-16,3.4,?,-1.4%,10%,-1,-3%[15.4 µM]
CC1(C)CC(=O)C=C(c2ccc(-c3ccc4[nH]ccc4c3)cc2)C1=O,0,nt,nt,0.0%,nt,nt,?
O=C(O)Cn1c(SCCOc2ccccc2)nc2ccccc21,-4,0.0,-16%,0.1%,2%,-9,?
CS(=O)(=O)NNC(=O)Cn1nnc(-c2ccc(OCc3ccccc3Cl)cc2)n1,-12,nt,nt,-0.9%,-11%,nt,9%

# Screening data deposited in PubChem BioAssay by National Center for Advancing Translational Sciences (NCATS).
